Screening results (PubChem)
Sa RN4220 lethal: kills Staphylococcus aureus RN4220; S. aureus RN4220 growth, OD600, 16 h; inhibition, % (test concentration not listed); 330,000 tested, 0.33% active; AID 1259311;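 active = z-score of -3 or lower and OD600 up to 0.18 on both plates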;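 also: plate controls were untreated cells for no effect and reference antibiotic for full effect; stock transfer was 100 nL into about 80 µL; one replicate is shown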
BJeLR viability: kills HRASV12-expressing BJeLR cells; 300,000 tested, 0.17% active; AID 1554; inhibition, % (concentration not given with the values); BJeLR (HRASV12) viability, CellTiter-Glo ATP luminescence, 48 h; reference of the scale not given here;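 active = replicate mean above 50%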;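 also: 50 nL library stock added to about 25 µL; numbers are from one replicate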
PrP 5UTR inh: suppresses PrP 5' UTR mRNA reporter expression; cell-based PrP 5' UTR mRNA reporter, plate reader; inhibition, % (concentration not given with the values); 340,000 tested, 0.35% active; AID 488862;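 active = every replicate at 50% or more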;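 also: 0 = median of the neutral control wells; tested in H4 reporter cells; numbers are from one replicate; inactives centre near -14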
Mtb hypoxia inh: reduces hypoxia-regulated biosensor signal in M. tuberculosis; 300,000 tested, 0.1% active; fluorescence inhibition, % (test concentration not listed); M. tuberculosis hypoxia-regulated fluorescent reporter, fluorescence;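 active = 35 to 45% if threefold the growth effect, above 45% if 1.5-fold the growth effect; inactive = the rest, general growth blockers included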;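 also: wells of about 50 µL received 100 nL stock; 0% = vehicle wells and 100% = reference inhibitor wells; whole bacteria with a GFP reporter of the hypoxia response; strong numbers were not always called active; many hits fall short of the cut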
Sa ugtP lethal: compounds lethal to S. aureus RN4220 ugtP deletion mutant; OD600 growth, 16 h; some inactives read as strong as hits; growth inhibition, % (test concentration not listed); 330,000 tested, 0.54% active;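 active = z-score under -3 and OD600 up to 0.15 on both plates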;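 also: plate controls were untreated wells for no effect and antibiotic for full effect; wells of about 80 µL received 100 nL stock; the first replicate is given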
Autofluor counter: compound fluorescence in toxin protease inhibitor counterscreen; 360,000 tested, 3.1% active; AID 624483; fluorescence intensity (concentration not given with the values); compound autofluorescence counterscreen, microsphere flow cytometry; active compounds read high;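 active = at least 3 SD above the mean of all compounds, about 16000 in these data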;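 also: 100 nL of 1 mM stock went into each well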
Mtb hypoxia inh growth: also measured in Mtb hypoxia inh; calls as there; growth inhibition, %; measured here: M. tuberculosis growth (absorbance);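 0% = vehicle and 100% = reference antibiotic; read after six days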
Starred values were filed as active, the others as inactive; . = no result given.

SMILES | Sa RN4220 lethal | BJeLR viability | PrP 5UTR inh | Mtb hypoxia inh | Mtb hypoxia inh growth | Sa ugtP lethal | Autofluor counter
Cc1ccc(Cn2c(C(CO)Nc3nc(-c4ccc(Cl)c([N+](=O)[O-])c4)cs3)nc3ccccc32)cc1 (stereo not drawn) | -3.2 | -8 | 4 | 20 | 9 | 10 | 3995
Cc1cccc(NC2SC(=O)NC2=O)c1 (stereo not drawn) | 3.0 | 8 | -11 | -8 | 2 | -1 | 4922
Cc1cc(C)n2c(SCc3cccs3)nnc2n1 | 3.4 | 7 | -18 | . | . | 4 | 4517
COC(=O)c1[nH]c2cc(C)ccc2c1NC(=O)CN1CCOCC1 | 1.2 | 2 | -7 | 14 | 5 | 3 | 5493
COc1ccc(OCC(=O)NN=c2oc3c(OC)cccc3cc2C(N)=O)cc1 | 4.7 | . | . | 7 | -3 | 3 | .
Nc1nc(SCc2ccc(Cl)cc2Cl)ns1 | -4.2 | 2 | -25 | 2 | 9 | 38 | 6028
COc1ccc(Br)cc1/C=c1\sc2nc(-c3ccco3)nn2c1=O | . | 2 | -13 | . | . | . | 2985
CCN1C(=O)C2C(c3ccc(C)cc3)N3C(=O)N(c4cccc(Br)c4)C(=O)[C@@]3(Cc3ccccc3)C2C1=O (stereo partly drawn) | 12 | . | . | 7 | 6 | 18 | .
CC(C)=CCc1c2c(c(O)c3c(=O)c4c(oc13)-c1cc(O)c(O)cc1OC4C=C(C)C)C=CC(C)(C)O2 (stereo not drawn) | 3.5 | 5 | . | . | . | -11 | .
CCOC(=O)c1cc(=O)c2ccc(OCC(=O)Nc3ccccc3)cc2o1 | 3.4 | 9 | -16 | 13 | -1 | 7 | 6716
COc1cccc2c1C(=O)c1ccc3ccccc3c1C2=O | 17 | 2 | -70 | . | . | 23 | 2360
Clc1ccccc1-c1nnn(Cc2ccc(-c3nn[nH]n3)cc2)n1 | 2.8 | -6 | 5 | . | . | 3 | 2808
COCCSc1ccccc1C(=O)Nc1ccccc1C#N | 2.0 | 2 | -17 | 0 | 9 | 10 | 4428
NCCCNc1ccc([N+](=O)[O-])cc1C(F)(F)F | 0.0 | 2 | -10 | 8 | 9 | 3 | 3595
COc1ccc(N/N=C(C)/C(=N/O)C(=O)Nc2ccccc2)cc1 | . | 20 | -33 | . | . | . | 4835
Clc1ccccc1OCCN1CCC(Cc2ccccc2)CC1 | -0.7 | 15 | -1 | 16 | 5 | 1 | 5149
COC(=O)CCS(=O)(=O)c1ccc(NC(C)=O)cc1 | 0.4 | 3 | -10 | 13 | 0 | 0 | 11175
O=C(NC1CCCC1)c1cc(-c2ccc(F)cc2)on1 | 13 | -1 | -80 | 3 | 6 | 0 | 5967
COc1ccc(NC(=O)CC(NCCc2ccccc2)C(=O)O)c(OC)c1 (stereo not drawn) | -0.6 | 7 | -17 | -2 | 5 | -4 | 8836
COC(=O)c1scc(C)c1NN=C(C)c1ccc(F)cc1 | 3.2 | . | . | -2 | 8 | -4 | .
NCCNc1ccc(C(=O)N2c3ccccc3Sc3ccccc32)cc1[N+](=O)[O-] | -13 | 17 | -10 | 2 | 8 | -13 | 3266
COc1cc(O)c(C(CC(=O)N2CCCCC2)c2cc(OC)c(OC)c(OC)c2)c(OC)c1 (stereo not drawn) | 0.9 | -3 | -13 | 3 | -8 | -1 | 3921
CCC1CCCCN1Cc1nc2c(c(=O)n(C)c(=O)n2C)n1Cc1cccc2ccccc12 (stereo not drawn) | -11 | 5 | . | 8 | 8 | -1 | 5251
O=C(Nc1ccccn1)c1cc2cc([N+](=O)[O-])ccc2s1 | 0.1 | -11 | -73 | 7 | 14 | -7 | 4637
CCOc1ccc2nc(NC(=O)C3CCN(S(=O)(=O)c4cnc[nH]4)CC3)sc2c1 | -0.6 | 0 | -21 | . | . | -3 | 5976
O=C(NCc1ccccc1)C1=C[C@H](c2coc3ccccc3c2=O)C[C@H](OCCCCO)O1 | . | 13 | -8 | . | . | . | 4337
CCN(CC)S(=O)(=O)c1ccc(C)c(NC(=O)COC(=O)C=C(C)C)c1 | -0.2 | -1 | -6 | -4 | 2 | -3 | 4486
O=C1/C(=C\c2ccc3ccccc3c2)CCCc2ccccc21 | -4.2 | 13 | -64 | -1 | 1 | 54 | 3950
Cc1cc2oc(=O)cc(-c3ccccc3)c2c(C)c1-c1ccc(F)c(Cl)c1 | 1.5 | . | -3 | -3 | 2 | 13 | 3635
Cc1ccc(-n2c(=O)[nH]c3c(oc4ccccc43)c2=O)cc1 | 3.6 | 0 | -11 | 0 | 1 | 7 | .
COc1ccc(CCC(=O)NNC(=O)Nc2ccc(C(C)C)cc2)cc1 | 5.2 | 8 | -15 | 5 | -13 | 8 | 4207
CCCc1[nH]nc2c1C(c1ccc(OC)c(Cn3nc(C)c(Br)c3C)c1)C(C#N)=C(N)O2 (stereo not drawn) | 0.9 | -10 | -27 | 5 | 4 | -15 | 9447
O=S(=O)(N=C([O-])C[n+]1ccccc1)c1ccc(Cl)cc1 | 4.8 | . | . | -6 | 5 | 12 | .
CCC(=O)N1CCc2cc(-c3csc(NC(=O)c4ccco4)n3)ccc21 | 9.3 | 5 | -43 | 9 | 3 | 7 | 3917
COc1ccc(C=NNC(=S)Nc2ccccc2)cc1COc1ccc(F)cc1 | 4.5 | . | . | -11 | 1 | 1 | .
CCOC(=O)CC1c2cc(C(F)(F)F)ccc2S(=O)(=O)N1C(C)C (stereo not drawn) | 5.6 | . | . | 5 | 0 | 4 | .
O=[N+]([O-])c1cccc(CN2CC=C(c3ccc(F)cc3)CC2)c1 | 0.0 | 0 | -23 | 22 | 5 | 12 | 4250
Nc1cc(S(=O)(=O)Nc2cc(Cl)ccc2Cl)ccc1N1CCCC1 | 55 | 1 | -26 | 7 | -4 | 23 | 4382
O=C(CCc1ccccc1)NCC(=O)NN=Cc1ccc2c(c1)OCO2 | -0.9 | . | . | 8 | 9 | 7 | .
COc1ccc(/C=C/C(=O)OCC(=O)Nc2cccc(Oc3ccccc3)c2)c(OC)c1 | 9.7 | 12 | -15 | 6 | 3 | 51 | 2525

Part of the list above in order of count of non-hydrogen atoms, highest first.
SMILES | Sa RN4220 lethal | BJeLR viability | PrP 5UTR inh | Mtb hypoxia inh | Mtb hypoxia inh growth | Sa ugtP lethal | Autofluor counter
CCC1CCCCN1Cc1nc2c(c(=O)n(C)c(=O)n2C)n1Cc1cccc2ccccc12 (stereo not drawn) | -11 | 5 | . | 8 | 8 | -1 | 5251
COc1ccc(/C=C/C(=O)OCC(=O)Nc2cccc(Oc3ccccc3)c2)c(OC)c1 | 9.7 | 12 | -15 | 6 | 3 | 51 | 2525
CCC(=O)N1CCc2cc(-c3csc(NC(=O)c4ccco4)n3)ccc21 | 9.3 | 5 | -43 | 9 | 3 | 7 | 3917
Cc1ccc(-n2c(=O)[nH]c3c(oc4ccccc43)c2=O)cc1 | 3.6 | 0 | -11 | 0 | 1 | 7 | .
O=C(Nc1ccccn1)c1cc2cc([N+](=O)[O-])ccc2s1 | 0.1 | -11 | -73 | 7 | 14 | -7 | 4637

Continued.
SMILES | Sa RN4220 lethal | BJeLR viability | PrP 5UTR inh | Mtb hypoxia inh | Mtb hypoxia inh growth | Sa ugtP lethal | Autofluor counter
O=C(CSc1nnc(COc2ccccc2)o1)N1CCOCC1 | 1.9 | 24 | 3 | 6 | 6 | 7 | 4262
O=C(O)CCN1C(=O)/C(=C2\C(=O)N(Cc3ccc(F)cc3)c3ccccc32)SC1=S | 17 | 0 | -28 | . | . | 17 | 3808
COc1ccc2[nH]c(=O)c(C(c3nnnn3C3CCCCC3)N3CCN(C)CC3)cc2c1 (stereo not drawn) | 3.1 | 0 | -14 | -19 | 5 | -4 | 9789
O=C(COC(=O)c1cccc(Br)c1)NCCc1ccccc1 | -1.7 | -6 | -12 | 9 | 2 | 9 | 2532
O=C(OCC(=O)N(c1ccccc1)C1CCCCC1)c1ccc(CO)cc1 | 6.0 | . | -22 | 0 | 1 | 3 | 7916
Cn1c2ccccc2c(=O)c2cc(NCCCN3CCOCC3)ccc21 | -3.3 | . | -65 | -3 | -2 | 3 | 3865
O=C(N/N=C/c1ccc(C(=O)O)cc1)C(=O)N1CCCCCC1 | . | -4 | -13 | . | . | . | 4940
Cc1cc(-c2n[nH]c(=S)n2N=Cc2ccc(Cl)c([N+](=O)[O-])c2)n[nH]1 | 5.0 | . | . | -5 | 9 | 3 | .
C=CCNc1nc(-c2c(C)nc3ncccn23)cs1 | 2.5 | -17 | -16 | 7 | 5 | 0 | 3864
CNS(=O)(=O)c1ccc(C)cc1 | -1.0 | 2 | -19 | 3 | -5 | 5 | 4175
Cc1cnc(C(=O)N2CCN(S(=O)(=O)c3cc(C(F)(F)F)cc(C(F)(F)F)c3)CC2)cn1 | 23 | . | -2 | 1 | 10 | 13 | 4270
O=C(/C=C/c1ccc2c(c1)OCO2)Nc1cccnc1 | 6.0 | 0 | -61 | 12 | 9 | 6 | 2977
[N-]=[N+]=NCC(Cc1ccccc1)N1CCC(O)CCC1=O (stereo not drawn) | 2.1 | . | . | -3 | -3 | -2 | .
COc1ccc(C2C(=C(O)c3ccccc3)C(=O)C(=O)N2c2ncccn2)cc1OC (stereo not drawn) | 5.0 | . | . | 2 | 4 | 9 | .
N#CC1=C(N)NC(SCC(=O)c2ccccc2)=C(C#N)C12CCCC2 | 2.3 | 8 | 0 | 8 | 1 | 6 | 1996
C=CCN1C(=O)C(=C2Sc3ccccc3N2C)SC1=Nc1c(C)n[nH]c1C | -2.8 | . | . | -5 | -7 | -5 | .
CCNC(=S)NN=Cc1ccc(OCC(=O)Nc2ccc(C)cc2)cc1 | 4.9 | . | . | 9 | 7 | -3 | .
Cc1ccc(-n2c(CSc3nc(C)cc(C)n3)n[nH]c2=S)cc1 | 9.2 | 3 | -12 | 0 | -10 | 6 | 3478
CCCCCc1cc(=O)oc2c(C(CCN3CCCC(C)C3)c3cc(OC)c(OC)c(OC)c3)c(OC)cc(OC)c12 (stereo not drawn) | -3.1 | -1 | -28 | 10 | 5 | -10 | 3969
NS(=O)(=O)c1ccc(CCNC(=O)C2Cc3ccccc3CN2C(=O)c2ccco2)cc1 (stereo not drawn) | 1.8 | 12 | 11 | 2 | 1 | -3 | 7035
CCOc1ccc(C(NC(=O)CC)c2c(O)ccc3ccccc23)cc1 (stereo not drawn) | -5.2 | 2 | -22 | 3 | -2 | 14 | 4537
Cc1ccc(C(=O)Nc2ccc(Br)cc2)cc1S(=O)(=O)Nc1ccccn1 | 0.5 | -5 | -23 | -1 | 2 | 7 | 8887
CCN(CC)S(=O)(=O)c1ccc(N2CCOCC2)c(NC(=O)c2sccc2C)c1 | 9.0 | . | -5 | 5 | 8 | 0 | 3849
O=C(Nc1ccc(N2CCCC2)cc1)c1cccc(Cl)c1 | 6.1 | 22 | -63 | 0 | -9 | -1 | 3192
CC(C)[C@H](NC(=O)N1C[C@H]2C[C@@H](C1)c1cccc(=O)n1C2)C(=O)Nc1ccccc1F | 5.4 | -8 | -26 | . | . | -6 | 4803
COc1cc(CCCNC(CN)Cc2ccccc2)cc(OC)c1OC (stereo not drawn) | 4.7 | . | . | 7 | 7 | 1 | .
CC1=C(C(=O)OCc2ccccc2)C(c2ccc(C(C)(C)C)cc2)NC(=O)N1CCCCCC(=O)O (stereo not drawn) | 12 | -17 | -18 | -1 | 5 | 30 | 3966
COCCC(=O)N1CCC(Oc2ccc(C(=O)NC3CCOC(C)(C)C3)cc2)CC1 (stereo not drawn) | 1.0 | -1 | -19 | 5 | -11 | 4 | 6281
COc1ccc([N+](=O)[O-])cc1NC1CCCCC1 | 1.5 | 4 | -10 | 8 | 19 | -8 | 9287
COc1cccc(C=Nc2cc(C(C)C)c(O)cc2C)c1O | 7.2 | . | -1 | 10 | -4 | 7 | 3058
Cc1ccccc1C(=O)c1cccn1CC(=O)NCC1CCCO1 (stereo not drawn) | -6.8 | 1 | -27 | 1 | 5 | -5 | 2867
COc1ccc(CNC(=O)CN(C(=O)CCC(=O)Nc2ccccn2)c2ccc3c(c2)OCO3)cc1 | -1.6 | 0 | -11 | 1 | -1 | 7 | 5186
CN(CC(=O)NCc1ccco1)S(=O)(=O)c1ccc(F)cc1 | -1.3 | -4 | -11 | 0 | 13 | 8 | 3794
O=C(Nc1ccc(F)cc1)c1cccc2c1C(=O)N(CC1CCCO1)C2 (stereo not drawn) | 3.0 | -2 | -12 | 4 | 6 | 2 | 5591
O=C(COc1ccccc1)NS(=O)(=O)c1ccccc1 | 5.0 | -7 | -18 | -8 | -1 | 16 | 5158
Cc1ccc(NS(=O)(=O)c2cc(-c3cc(C)no3)ccc2C(C)C)nc1 | 1.2 | 7 | -9 | 6 | 7 | 1 | 4859
